# UUG fidelity – alters start codon recognition fidelity in yeast | S. cerevisiae UUG-firefly luciferase reporter, luminescence/redox ratio | activity score, % at 18.7 µM | 350,000 compounds, 0.13% hits | AID 602363;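 active = replicate mean at a twofold rise or more, about +100% in these data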;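 note: firefly luciferase made from a UUG start codon reports start codon fidelity; reporter light over untreated wells divided by growth signal over untreated wells; some hits fall short of that in this replicate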
# PABP polyA inh – PABP-poly(A) binding inhibition. P11940. PABP-poly(A) RNA binding, fluorescence polarization. inhibition, % at 35 µM. 290,000 compounds, 1% hits. AID 2014;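 active = 50% or more with normal probe brightness, or confirmed in later tests; inconclusive = above 50% with abnormal brightness, or retests that disagree; inactive = below 50% or failed in later tests; about a fifth of its hits are not listed in these tables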;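 note: calls also rest on retests at 20 µM and on dose response follow-up; controls were probe without protein and protein plus probe with vehicle; some compounds called inactive have numbers as strong as hits; many hits fall short of the cut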
# Env fusion inh – inhibitors of HIV Env-mediated cell fusion | AID 651610 | inhibition, % at 12.3 µM | HeLa-JRFL Env/CEM21 cell fusion, luciferase | 360,000 compounds, 1.1% hits;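 active = mean replicate inhibition score of at least 50 and every replicate individually at or above 50; inconclusive = only one of the two criteria met; inactive = mean below 50 and not all replicates reaching 50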;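 note: 0% = plate neutral controls and 100% = maraviroc near 300 nM; one replicate is shown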
# MT1-MMP act inh – inhibitors of human MT1-MMP activation | P50281 | HT1080 RFP-PRO-GFP cells, GFP/RFP ratio fluorescence, overnight; percent of plate control window, DMSO zero | GFP/RFP ratio change, % at 20 µM | 360,000 compounds, 0.061% hits | AID 651647;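 active = GFP/RFP ratio change of at least 30% with cell ATP level not reduced by more than half and red fluorescence within 50% of control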; note: strong numbers were not always called active
#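 Assay system – RFP-PRO-GFP reporter HT1080 cells · Compound dosing – single dose of 20 µM compound, 1% DMSO final · Incubation – overnight compound exposure at 37 °C · Measure – GFP/RFP fluorescence ratio · Benchmarks – DMSO wells and RFP-L50D-GFP cells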
# Rce1 inhib – yeast Ras-converting enzyme inhibition; yeast membranes, quenched prenylated peptide cleavage fluorescence; calls only; 290,000 compounds, 0.27% hits;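 active = fall in fluorescence gain of 50% or more versus controls, with final raw signal at or below 3038400; inconclusive = same 50% fall but final raw signal above 3038400; inactive = fall in fluorescence gain under 50%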;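 note: plate controls were neutral control wells for no effect and wells lacking membranes for full effect; tested at 10 µM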
# Target sequence (Q03530 whole entry, looked up): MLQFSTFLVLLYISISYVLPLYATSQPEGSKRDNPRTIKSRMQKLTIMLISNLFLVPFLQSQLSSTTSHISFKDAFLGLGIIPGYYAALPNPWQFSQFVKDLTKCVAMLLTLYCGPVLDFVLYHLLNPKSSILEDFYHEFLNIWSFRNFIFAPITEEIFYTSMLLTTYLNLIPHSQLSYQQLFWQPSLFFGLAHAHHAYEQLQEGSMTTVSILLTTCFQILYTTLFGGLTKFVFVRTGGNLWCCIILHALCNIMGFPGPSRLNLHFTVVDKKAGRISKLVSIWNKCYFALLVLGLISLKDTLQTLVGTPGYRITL
# CSC inhib – cancer stem cell inhibition; cancer stem cell-like cells viability, luminescence; inhibition, % at 7.5 µM; 300,000 compounds, 1.1% hits;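 active = mean at 75% or more and at least half the replicates too; inconclusive = mean and replicates disagree; tested in HMLE shEcad cells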;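 note: 0% = median of negative and 100% = median of positive control wells; the first replicate is given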
# eIF4H inh – inhibitors of RNA binding by human eIF4H | eIF4H fluorescence polarization binding assay | inhibition, % at 35 µM | 290,000 compounds, 0.94% hits | Q15056;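 active = 50% or more with normal probe brightness, or confirmed in later tests; inconclusive = above 50% with abnormal brightness, or retests that disagree; inactive = below 50% or failed in later tests; about a fifth of its hits are not listed in these tables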;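 note: calls also rest on retests at 20 µM and on dose response follow-up; 0% = protein and probe with vehicle and 100% = probe without protein; strong numbers were not always called active; many hits fall short of the cut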
# eIF4H inh retest – recorded beside eIF4H inh, whose call it bears; inhibition, %; compound at 20 µM; confirmation average;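 mean of two retest wells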
# PABP polyA inh retest – also measured in PABP polyA inh; calls as there; inhibition, %; compound at 20 µM; confirmation repeats;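 mean of two retest wells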
# MT1-MMP act inh RFP – also measured in MT1-MMP act inh; calls as there; RFP signal change, %; measured here: RFP expression control read;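 0 = vehicle wells; hits needed this value within 50% of zero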
# Numbers without * were called inactive; i = inactive; ? = inconclusive; . = not tested or not shown; & = joins results of further samples; [ ] = dose if it differs, or a comment. The list is partial, so the mix of outcomes need not match the whole.
SMILES,UUG fidelity,PABP polyA inh,Env fusion inh,MT1-MMP act inh,MT1-MMP act inh RFP,Rce1 inhib,CSC inhib,eIF4H inh,others
NC(=O)c1ccc(N=Nc2c(O)[nH]c(=O)[nH]c2=O)cc1,.,13,.,.,.,i,-10,39,
CCCCn1c(O)c(C(CC)=NC(C)c2ccccc2)c(=O)[nH]c1=O (stereo not given),-12,1,.,-5,-13,i,.,-11,
O=[N+]([O-])[N-][n+]1cnn(Cc2ccccc2)c1,.,7,2,1,4,i,-10,2,
COc1ccc(NP(=O)(Oc2ccc(Cl)cc2)Oc2ccc(Cl)cc2)cc1OC,5,14,.,-2,-11,i,34,-5,
COC(=O)CNC(=O)c1cn(CCC#N)nc1-c1ccc(F)cc1,.,-2,-5,1,6,i,16,0,
CCOC(=O)C(O)(c1ccc(N(C)C(=O)c2ccc(Cl)c(Cl)c2)cc1)C(F)(F)F (stereo not given),.,3,-17,-4,-6,i,5,-7,
CN1CCN(c2nc([N+](=O)[O-])nn2C)CC1,.,-10,-4,-2,-2,i,-3,-4,
CN1CCN(c2c[nH]c(=O)[nH]c2=O)CC1,4,2,-4,-4,-2,i,2,-2,
C[C@H](CO)N1C[C@H](C)[C@@H](CN(C)C(=O)Oc2ccc3ccccc3c2)OCc2cn(nn2)CCCC1=O,-3&12&1,.,-14[16.7 µM],4,7,.,.,.,
COC(=O)COc1ccc(/C=C2\C(=O)NC(=S)N(c3ccc(C)cc3)C2=O)cc1OC,-10,-14,7,-7,-1,i,-3,-9,
N#C/C(=C(/O)c1ccc(S(=O)(=O)N(CCCl)CCCl)cc1)c1nc2ccccc2[nH]1,.,-11,0,-1,1,i,-5,-1,
C=CCn1c(O)c(/C(C)=N/N2CCCCCC2)c(=O)[nH]c1=O,.,4,-3,4,-4,i,-13,-4,
Cc1cccc(-c2nc3ccccc3c(=O)n2-n2cccc2)c1,5,0,.,-3,-3,i,22,3,
O=C(CF)NC(NC(=S)Nc1ccccc1O)C(Cl)(Cl)Cl (stereo not given),.,49,-1,-4,6,i,-12,58,eIF4H inh retest=-2;PABP polyA inh retest=10
CCOC(=O)C1=Nc2ccccc2/C1=C\c1c(O)n(C)c(=O)n(C)c1=O,-12,?,-13,0,-1,i,-4,?,
COC(=O)C1=C(c2ccc(F)cc2OCc2ccccc2)C[C@@H]2CC[C@H]1N2C(=O)NCCOc1ccccc1,-1,.,17,-4,-18,.,19,.,
CC(=O)c1c(C)[nH]c(C(=O)N2CCC3(CC2)OCCO3)c1C,-16,-13,3,-1,-3,i,-7,-5,
CC/C(=N\N1CCCCC1)c1c(O)[nH]c(=O)[nH]c1=O,.,1,-9,2,3,i,1,-8,
O=C(CCc1ccccc1)N1Cc2cc(-c3ccccc3)ccc2-n2nncc2C1,-36,.,2,-3,-2,.,.,.,
COCCNC(=O)CN1C(=O)CN=C(c2ccccc2)c2ccccc21,-7,3,5,4,6,i,-13,-3,
N#C/C(=C\c1cccc(O)c1)C(=O)O,-19,.,15,4,4,.,.,.,
CC(=Nc1ccccc1N)c1c(O)n(C)c(=O)n(C)c1=O,-6,-1,14,0,6,i,-31,-10,
COc1ccc(-n2c(SCCN(C)C)nc3ccccc3c2=O)cc1,.,10,12,-3,1,i,-11,3,
CCOc1ccc(-n2c(O)c(C=NCCCn3ccnc3)c(=O)[nH]c2=O)cc1,-14,2,-59,-7,-1,i,-17,-12,
CCCCCn1c(=O)c(C(=O)Nc2cc(C)ccn2)c(O)c2ccccc21,-10,-7,3,-13,-12,i,30,4,
c1ccc2c(c1)-c1cccc3cccc-2c13,-11,.,.,1,7,.,-13,.,
CCOC(=O)CCN=Cc1c(O)n(-c2ccc(Br)cc2)c(=O)[nH]c1=O,-6,-1,-20,-28,-10,i,-10,-5,
CN1CCN(c2c(C#N)c(C(F)(F)F)nn2C)CC1,.,1,24,9,7,i,1,2,
O=C1CCN(C(=O)CCCn2c(=O)oc3ccccc32)CC1,8,-10,5,0,-1,i,-5,-1,
O=c1[nH]c(=O)n(-c2ccccc2)c(O)c1/C=C1/C(c2ccccc2)=Nc2ccccc21,.,5,17,-4,-12,i,88*,?,
Cc1nc2cc(F)ccc2n1C1CCN(Cc2nnnn2CCc2ccccc2)CC1,-12,30,i,1,-4,i,.,10,
O=C1NC(=O)C(=Cc2csc3ccccc23)C(=O)N1,-19,17,8,2,5,i,-6,38,
NP(=O)(OCCCc1ccccc1)Oc1ccccc1 (stereo not given),-5,5,-29,5,2,i,-14,-1,
CCOc1ccccc1Oc1coc2cc(OC(=O)N(C)C)ccc2c1=O,-11,-3,0,-2,-1,i,11,-10,
CCN1CCN(C(c2cccs2)C(C)NC(=O)Oc2ccccc2)CC1 (stereo not given),1,6,-7,-1,3,i,5,-4,
CCC1(C)CN(S(=O)(=O)OCC(Cl)(Cl)Cl)C(=O)N1 (stereo not given),-26,-1,-25,-2,4,i,-11,3,
CCC1CN1P(=S)(N1CC1CC)N1CC1CC (stereo not given),-12,.,6,-8,1,.,.,.,
O=C(Cc1cccs1)N1Cc2ccccc2-n2nncc2C1,-29,.,10,0,8,.,.,.,
COP(=O)(OC)C1(O)C(=O)Nc2ccc(Br)cc21 (stereo not given),.,-6,.,-9,5,i,-6,-11,
COC(=O)C1=C(c2ccccc2OCc2ccccc2)C[C@@H]2CC[C@H]1N2C(=O)NCCCOC(C)C,-3,.,-12,-4,-2,.,4,.,
COc1ccc(N=Cc2c(O)n(C)c(=O)n(C)c2=O)cc1,2,-1,-8,0,-3,i,18,-9,
CCOCN(C(=O)CCl)c1c(C)cccc1CC,-10,.,-13,1,1,i,-2,.,
CN(C)C(=O)Oc1cccc(NC(=O)N2CCOCC2)c1,-3,-10,.,5,10,i,-1,2,
CCOC(=O)C(O)(c1ccc(N(CC)S(=O)(=O)c2ccc(C)cc2)cc1)C(F)(F)F (stereo not given),-11,-4,26,-6,-7,i,-17,-11,
CCOC(=O)c1cc2c(cn1)[nH]c1ccccc12,-7,-10,-18,7,4,i,-10,7,
CCN1CCN(Cc2cc(OC)c(OC)cc2[N+](=O)[O-])CC1,.,6,.,.,.,i,-2,-8,
CN(CCOc1ccc(C=C2C(=O)NC(=O)NC2=O)cc1)c1ccccn1,-3,11,-40,1,3,i,-4,47,
COc1ccc(Cl)cc1C(=O)C1CCCN(CCO)C1 (stereo not given),.,4,8,0,-1,i,4,-3,
O=[N+]([O-])c1cccc(CN2CCN(Cc3ccc(Cl)cc3)CC2)c1,-21,2,17,-1,-8,i,-6,-3,
Cc1ccsc1C(=O)C1CCCN(Cc2cnn(C(C)C)c2)C1 (stereo not given),-27,-12,18,-1,1,i,-25,-2,
O=c1[nH]c(=O)n(CCc2ccccc2)c(O)c1/C=N/N1CCOCC1,-9,-2,3,2,-1,i,-14,3,
CCC(=NCC1CCCO1)c1c(O)n(Cc2ccccc2)c(=O)[nH]c1=O (stereo not given),-2,8,-18,9,0,i,-23,8,
CCN1CCN(c2nc([N+](=O)[O-])nn2C)CC1,.,6,-10,0,-1,i,-11,3,
CC1=Nc2cc(C(=O)N3CCC4(CC3)OCCO4)ccc2Sc2ccc(Cl)cc21,0,.,0,-1,-1,i,-12,.,
CC(C)c1ccc(-n2c(O)c(/C=N/NC(=O)c3ccccc3O)c(=O)[nH]c2=S)cc1,-26,10,-9,11,2,i,-4,15,
Cc1nc(CCl)cc(=O)[nH]1,.,-8,-8,2,5,i,-4,-6,
O=C(C1CC(=O)N(c2ccc(F)c(Cl)c2)C1)N1CCC2(CC1)OCCO2 (stereo not given),4,-6,.,0,7,i,4,-9,
COc1ccc(C2C([N+](=O)[O-])=C(N)Oc3c2c(=O)oc2ccccc32)cc1 (stereo not given),.,23,.,.,.,i,-7,4,
CN1CCCC(C(O)(c2ccccc2)c2ccccc2)C1 (stereo not given),-15,14,-13,-4,2,i,.,5,
CS(=O)(=O)N1CCN(C(=N)N[N+](=O)[O-])CC1,.,-10,27,2,2,i,-12,-6,

# Retrieved by structure from the entries so far:
SMILES,UUG fidelity,PABP polyA inh,Env fusion inh,MT1-MMP act inh,MT1-MMP act inh RFP,Rce1 inhib,CSC inhib,eIF4H inh,others
Cc1nc(CCl)cc(=O)[nH]1,.,-8,-8,2,5,i,-4,-6,
C[C@H](CO)N1C[C@H](C)[C@@H](CN(C)C(=O)Oc2ccc3ccccc3c2)OCc2cn(nn2)CCCC1=O,-3&12&1,.,-14[16.7 µM],4,7,.,.,.,
O=C1CCN(C(=O)CCCn2c(=O)oc3ccccc32)CC1,8,-10,5,0,-1,i,-5,-1,

# Next records follow:
SMILES,UUG fidelity,PABP polyA inh,Env fusion inh,MT1-MMP act inh,MT1-MMP act inh RFP,Rce1 inhib,CSC inhib,eIF4H inh,others
Cc1ccc(N2C(=O)NC(=O)/C(=C\c3ccc(N4CCOCC4)cc3)C2=O)cc1,.,7,.,-7,4,i,0,?,
CCOC(=O)c1c(C)n(CC(O)CN2CCOCC2)c2cc(Br)c(OC)cc12 (stereo not given),.,21,-11,4,-5,i,-10,-4,
CC[C@H]1CC2CN3CCc4c([nH]c5ccccc45)C(C(=O)OC)(C2)C13 (stereo not given in full),-22,.,.,0,2,i,41,.,
COC(=O)N(c1ccccc1)P1(=S)OCCO1,-15,-2,-31,4,3,i,0,0,
CCCCCCC(=O)c1c(O)n(-c2ccc(OC)cc2)c(=O)[nH]c1=O (tested in a mixture with another compound),.,-2,1,0,5,i,-11,-8,
CCCCCCn1c(O)c(C=Nc2c(C)n(C)n(-c3ccccc3)c2=O)c(=O)[nH]c1=O,-10,13,.,2,5,i,-6,-4,
CC[C@@H](C(N)=O)N1CCCC1=O,.,0,.,.,.,i,-2,8,
CCC(=NCCc1ccccc1)c1c(O)n(C2CCCCC2)c(=O)[nH]c1=O,-12,-9,21,-9,-20,i,9,-8,
c1ccc(CC2CCCCN2)cc1 (stereo not given),-18,2,-15,-4,-1,i,-1,-3,
COc1ccc(-c2ccc3c(c2)CN(C(=S)NCCc2ccccc2)Cc2cnnn2-3)cc1,-12,.,7,0,-9,.,.,.,
CC1=CC(=C2C(=O)NC(=O)NC2=O)C=C(C(F)(F)F)N1C(C)C,-13,1,-55,9,1,i,-15,6,
CCCNC(=O)N1[C@H]2CC[C@@H]1C(C(=O)OC)=C(c1ccccc1)C2,6,.,-12,0,0,i,-9,.,
Cc1ccc(-c2nc3ccccc3c(=O)n2-c2cccc(C)n2)cc1,.,-2,0,0,1,i,0,-8,
O=C1NC(=O)N(c2ccc3c(c2)OCO3)C(=O)/C1=C/c1ccsc1,.,10,-2,-49,6,i,-9,23,
O=C(c1cc(F)ccc1F)C1CCCN(CCCc2ccccc2)C1 (stereo not given),.,-6,12,0,3,i,0,-4,
COC(=O)C1=C(c2ccccc2OCc2ccccc2)C[C@@H]2CC[C@H]1N2C(=O)NCc1ccc(C(F)(F)F)cc1,-8,.,32,-9,-6,.,25,.,
O=C(c1ccc(-c2ccccc2)c(F)c1)C1CCCN(CCO)C1 (stereo not given),.,-5,1,-1,-1,i,57,-9,
O=C(Cc1ccccc1)N1CCN(Cc2ccccn2)CC1,-12,-3,-210,-2,4,i,-14,-3,
O=c1c2ccccc2nc(SCC2CCCCO2)n1-c1ccccc1 (stereo not given),-10,4,.,-6,-2,i,4,-10,
COc1ccc(-n2c(/C=C/c3ccc4c(c3)OCO4)nc3ccccc3c2=O)cc1,.,-2,-10,-3,-4,i,35,14,

# From PubChem
